# Mtb growth: Mycobacterium tuberculosis H37Rv growth inhibition, cell based, confirmatory dose response (AID 1949). most inactive calls were filed without a number and no value below 0 was filed. 1.6% of 100,000 active. one-dose inhibition, % at 10 µg/mL; IC50 in µg/mL for titrated hits;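 active = confirmed in a dose series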;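 note: bacteria grown 7 days with compound before Alamar blue readout; 0% = untreated bacteria and 100% = reference antibiotic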
# Active calls of the source: *; i = inactive. These rows are one share of the data, so the mix of outcomes need not match the whole.
SMILES,Mtb growth
CCCCC(=O)Nc1ccc2oc(-c3ccncc3)nc2c1,14%
COc1ccc(NS(=O)(=O)c2ccc(NC(=O)COc3cccc(C)c3)cc2)cc1,i
COc1ccccc1C(=O)N1CCN(c2nnc(-c3ccccc3)c3ccccc23)CC1,1%
CC(C)CCNC(=O)C1CCN(S(=O)(=O)c2ccc(Cl)cc2)CC1,i
Cc1ccc(C(=O)Nc2ccccc2Cl)cc1I,i
CCC(=O)Nc1ccc(-c2nnc(SCC(=O)c3ccc4ccccc4c3)n2C)cc1,i
CCOC(=O)c1ccc(NC(=S)N2CCCC(C#N)C2)cc1 (stereo not given),i
O=C(Nc1ccc(Br)cc1)C1CCN(C(=O)c2ccc(F)cc2)CC1,i
CS(=O)(=O)N(CC(=O)NCc1ccc2c(c1)OCO2)C1CCCCC1,i
COc1ccc(OC)c(N(CC(=O)Nc2ccccc2C(C)C)S(=O)(=O)c2ccccc2)c1,i
CC(=O)Nc1ccc(C(=O)Nc2ccc(S(=O)(=O)N3CCCC3)cc2)cc1,i
CCC(C)c1ccccc1NC(=O)c1cc(I)ccc1Cl (stereo not given),26%
O=C(Nc1ccccc1-c1ccccc1)c1ccc(NC(=O)c2ccco2)cc1,i
O=C(CCSc1ccc(Cl)cc1)Nc1ccc(F)c(Cl)c1,4.1µg/mL*
O=C(CC(Nc1cccc(Cl)c1Cl)C(=O)O)c1ccccc1 (stereo not given),i
CNC(=S)N1CCN(C2CCCCC2)CC1,i
N/C(=N\OC(=O)CC(c1ccccc1)c1ccccc1)c1ccc(Br)cc1,i
C=CCn1c(SCC(=O)Nc2ccc(C#N)cc2)nnc1-c1cc(Br)ccc1O,i
CC(C)Oc1ccc(CNC(=O)c2ccc(Br)o2)cc1,i
Cc1ccc(C)c(NC(CC(=O)c2ccccc2)C(=O)O)c1 (stereo not given),i
S=C(Nc1ccc(Br)cc1Cl)N1CCN(c2ncccn2)CC1,i
CCC(Oc1ccccc1)C(=O)Nc1ccc(C)cc1[N+](=O)[O-] (stereo not given),4%
Cc1cccc(NC(=S)NCc2ccccc2Cl)c1C,i
COc1ccc(Cl)cc1NC(=O)c1c(NCc2ccccn2)sc2c1CCC(C)C2 (stereo not given),i
CC(C)C(NC(=O)c1ccc(F)cc1)c1ccccc1 (stereo not given),i
CC(NC(=O)Cc1ccccc1[N+](=O)[O-])c1ccccc1 (stereo not given),i
CCc1ccc(NC(=O)CSc2nnc(COc3ccccc3C)n2C)cc1,i
COc1ccc(C(=O)O/N=C2\CCCc3c2ccc(O)c3C)cc1OC,2%
Cn1c(=O)c2c(nc(Nc3ccccc3)n2C)n(C)c1=O,i
Nc1nc(-c2ccccc2)nn1S(=O)(=O)c1ccc(Cl)cc1,i
O=C(/C=C/c1ccc(Cl)cc1)Nc1ccc(OC(F)(F)F)cc1,21%
Cc1c(O)ccc2c(=O)c(Oc3ccccc3F)c(C(F)(F)F)oc12,0%
CCCCC(=O)Nc1cccc(NC(=S)NC(=O)c2ccc(OCC)c(Cl)c2)c1,6%
Cc1ccc(C(=O)Nc2ccc(F)cc2)cc1I,30%
Cc1nnc(SCC(=O)N2CCN(c3cccc(Cl)c3)CC2)s1,1%
O=C(CCC(=O)OCc1ccc(Cl)cc1)Nc1ccccc1,1%
Cc1ccc(C(=O)NCc2ccc(Cl)cc2)c(Cl)c1,i
CN(C(=O)c1cc2nc(-c3ccco3)cc(C(F)(F)F)n2n1)C1CCCCC1,i
Clc1ccc(-n2ncc3c(NCc4ccccc4)ncnc32)cc1,i
CC(O)c1nc2ccccc2n1Cc1c(Cl)cccc1Cl (stereo not given),i
O=C(CSc1nnc(Cc2ccccc2)n1-c1ccccc1)c1cccs1,i
O=Cc1cc(Br)ccc1OC1CCCC1,1%
CCOC(=O)Cc1c(C)nc2c(-c3cccc(Br)c3)c[nH]n2c1=O,1.7µg/mL*
O=C(CCCSCC(=O)Nc1ccccc1)NCc1cccnc1,i
CCOc1ccc2nc(C(C)O)[nH]c2c1 (stereo not given),i
C=CCn1c(CNC(=O)c2ccc(OC)cc2)nnc1SCC(=O)c1ccc(Br)cc1,i
Cc1ccc(/C=C2\C(=O)NC(=O)N(c3ccccc3C)C2=O)o1,i
C=CCn1c(SCC(=O)Nc2ccc(C(C)C)cc2)nnc1-c1ccc(C)cc1,i

# The list goes on; it opens with the two that closed the last part.
SMILES,Mtb growth
Cc1ccc(/C=C2\C(=O)NC(=O)N(c3ccccc3C)C2=O)o1,i
C=CCn1c(SCC(=O)Nc2ccc(C(C)C)cc2)nnc1-c1ccc(C)cc1,i
CCCn1nnc(NC(=O)c2ccc(C(C)(C)C)cc2)n1,i
CSc1ccc(Cl)c(C(=O)Nc2ccc(NC(C)=O)cc2)c1,i
O=C(CC1(O)C(=O)N(Cc2cccc3ccccc23)c2ccccc21)c1ccccn1 (stereo not given),3%
O=C(NCC(F)(F)F)Nc1cccnc1,i
CCSc1ccccc1C(=O)Nc1cccnc1,i
Cc1cnn(C(=O)c2c(C)noc2C)c1,i
O=c1c(-c2ccccc2)c(C(F)(F)F)oc2cc(O)ccc12,i
Cc1cc(C)c(NC(=O)c2c(F)c(F)c(F)c(F)c2F)c(C)c1,2%
Cc1ccc(Cl)cc1N1CCN(CC(O)COc2ccc(Cl)cc2Cl)CC1 (stereo not given),6.7µg/mL*
Cc1ccc(CNC(=O)CN(Cc2ccc(F)cc2)S(=O)(=O)c2ccc(C)cc2)cc1,i
O=C(CSc1nc2sc3c(c2c(=O)n1-c1ccc(F)cc1)CCCC3)NCc1ccccc1,43%
S=C(c1cccs1)N1CCOCC1,i
COC(=O)c1ccccc1S(=O)(=O)NC(=O)c1ccccc1,0%
COc1ccc(S(=O)(=O)N(CC(=O)Nc2ccc(F)cc2F)c2ccc(Cl)cc2)cc1,i
COc1ccc(N2C(=O)CC(N3CCC(c4nc5ccccc5[nH]4)CC3)C2=O)cc1 (stereo not given),i
COC(=O)c1ccc(CSc2nc3ccccc3c(=O)[nH]2)cc1,1%
Cc1cc(NC(=O)CSc2nc3ccccc3c(=O)n2C2CCCC2)no1,2%
COC(=O)c1cn(C(=O)c2ccc(C)cc2C)c2ccccc12,i
O=C(Nc1ccc(F)cc1F)c1ccc(OCc2ccccc2)cc1,3%
COC(=O)c1ccc(-c2cc(CC(C)C)nc(N)c2C#N)cc1,i
O=S(=O)(Cc1ccc(Cl)cc1)NCCc1ccccc1,i
COc1cccc(-n2cnc3sc(C)cc3c2=O)c1,i
NC(=O)C1CCCN(C(=S)Nc2cccc3ccccc23)C1 (stereo not given),i
CC(=O)Nc1ccc(S(=O)(=O)NC(C)(C)CC(C)(C)C)cc1,i
Cc1ccc(-c2nn(-c3ccccc3)cc2C(=O)N2CCOCC2)cc1C,4%
O=C(c1ccc(Cl)cc1)N1CCN(CCN2C(=O)c3cccc4cccc(c34)C2=O)CC1,i
CC1Oc2ccccc2OC1C(=O)NCc1ccccc1 (stereo not given),i
O=C(NC1CCCC1)C1CCN(S(=O)(=O)c2ccccc2)CC1,i
CCOC(=O)N1CCN(C(=O)CNS(=O)(=O)c2ccc(C)cc2)CC1,i
C=CCNC(=O)c1cc(-c2ccc(C)cc2)on1,i
COc1ccc(NC(=O)CN(c2c(C)cccc2C)S(C)(=O)=O)cc1OC,i
COC(=O)c1c(NC(=O)c2c(OC)cccc2OC)sc2c1CCCC2,i
O=C(NC(=S)Nc1ccc(F)c([N+](=O)[O-])c1)c1ccc(-c2ccccc2)cc1,i
CCN(CC)C(=O)C(=O)Nc1ccc(C)cc1,i
CCCCC(CC)CNC(=O)c1ncn[nH]1 (stereo not given),0%
COC(=O)c1ccc(Cn2nc(-c3ccccc3)c3ccccc3c2=O)cc1,i
CCc1ccc(NC(=S)Nc2ccc(Cl)c(Cl)c2)cc1,1.4µg/mL*
O=S1(=O)CCC(NCc2ccccc2)C1 (stereo not given),i
Cc1ccc(C(=O)NC(C)c2nnc(SCC(=O)Nc3c(C)cccc3C)n2C)cc1 (stereo not given),i
CCCC(=O)N(Cc1cc2ccc(C)cc2[nH]c1=O)c1cc(C)ccc1C,6%
O=C(c1ccc([N+](=O)[O-])cc1)N1CCN(c2nnc(-c3ccccc3)c3ccccc23)CC1,i
COc1ccc(Cl)cc1C(=O)NC(=S)Nc1ccccc1C(=O)O,i
CN(c1ccccc1)S(=O)(=O)c1ccc(-c2ccc(S(=O)(=O)N(C)c3ccccc3)cc2)cc1,i
O=C1CCCC2=C1C(c1c(F)cccc1Cl)Nc1ccccc1N2 (stereo not given),i
CCc1c(C)c2ccc(OCc3ccc(OC)cc3)c(C)c2oc1=O,16%
N#Cc1nc(-c2ccc(Cl)cc2)oc1N1CCN(Cc2ccccc2)CC1,i
COC(=O)c1cc(NC(=S)NC(=O)c2ccc(C)c(Cl)c2)cc(C(=O)OC)c1,2%
CCOC(=O)NC1CCN(CC)CC1,i
Cc1ccc(S(=O)(=O)N(CC(=O)Nc2c(C)cc(C)cc2C)c2ccc(F)cc2)cc1,i
COc1ccc(C)cc1NC(=O)CN(C1CCCCC1)S(=O)(=O)c1ccc(Cl)cc1,15%
COc1ccccc1N1CCN(C(=O)c2cccc(OC)c2OC)CC1,i
COc1ccc(Cc2nnc(SCC(=O)Nc3nc4ccccc4s3)o2)cc1,i
CC(C)CNC(=O)c1cc(I)ccc1NC(=O)c1ccc(Cl)cc1Cl,i
CCOC(=O)c1ccc(NC(=O)C(=O)NCc2ccccn2)cc1,i
Cn1c(=S)[nH]c2c(c1=O)C1(CCCCC1)Cc1ccccc1-2,i
Cc1cc(S(=O)(=O)NCc2ccc3c(c2)OCO3)c(Cl)cc1Cl,0%
CCN(c1cccc(C)c1)S(=O)(=O)c1ccc(NC(C)=O)cc1,i
C=CCOc1ccc2ccccc2c1CNc1ncn[nH]1,i
COC(=O)COn1c(C)nc2ccccc2c1=O,i
Cn1c(=O)c2c(nc(N3CCCCCC3)n2CCSc2ncccn2)n(C)c1=O,5%
# (next part)
SMILES,Mtb growth
COc1ccc(OC)c(-n2c(=S)[nH]c3ccccc3c2=O)c1,i
O=C(COc1ccccc1)NS(=O)(=O)c1ccc(Cl)cc1,i
CCOC(=O)c1c(C(C)(C)C)oc2ccc(OS(C)(=O)=O)cc12,1%
COC(=O)c1c(NC(=O)c2ccccc2F)sc2c1C(C(=O)OC)CC2 (stereo not given),i
Cc1c(Cl)cccc1NC(=S)NCc1ccc2c(c1)OCO2,i
CCOc1ccc(-c2nc3n(c(=O)c2C#N)CCCS3)cc1,i
CCOC(=O)N1CCN(c2ccc(C(C)=O)cc2F)CC1,i
CN(C(=O)CN1C(=O)c2ccccc2C1=O)c1ccccc1,i
C=CCn1c(SCC(=O)NCc2ccccc2)nc2scc(-c3cccs3)c2c1=O,1%
CCc1ccc(C(=O)Nc2nnn(CC)n2)cc1,i
COc1ccc(C(=O)C(=O)c2ccccc2)cc1,1%
CCc1c(C)nc(SCC(=O)Nc2ccccc2)[nH]c1=O,i

# 12 entries already listed, arranged by length of the SMILES, low to high.
SMILES,Mtb growth
COC(=O)COn1c(C)nc2ccccc2c1=O,i
CCc1ccc(C(=O)Nc2nnn(CC)n2)cc1,i
COc1ccc(C(=O)C(=O)c2ccccc2)cc1,1%
C=CCOc1ccc2ccccc2c1CNc1ncn[nH]1,i
CCOC(=O)N1CCN(c2ccc(C(C)=O)cc2F)CC1,i
Cc1c(Cl)cccc1NC(=S)NCc1ccc2c(c1)OCO2,i
CCOc1ccc(-c2nc3n(c(=O)c2C#N)CCCS3)cc1,i
COc1ccc(OC)c(-n2c(=S)[nH]c3ccccc3c2=O)c1,i
CCOC(=O)c1c(C(C)(C)C)oc2ccc(OS(C)(=O)=O)cc12,1%
COC(=O)c1c(NC(=O)c2ccccc2F)sc2c1C(C(=O)OC)CC2 (stereo not given),i
Cn1c(=O)c2c(nc(N3CCCCCC3)n2CCSc2ncccn2)n(C)c1=O,5%
C=CCn1c(SCC(=O)NCc2ccccc2)nc2scc(-c3cccs3)c2c1=O,1%

# Following part:
SMILES,Mtb growth
Cc1cccn2c(NC(=O)c3ccccc3)c(-c3ccccc3)nc12,i
O=C1NC(=S)N(S(=O)(=O)c2cccc3cccnc23)C1Cc1ccccc1 (stereo not given),i
CC1CCN(CCCCOc2ccccc2-c2ccccc2)CC1,36%
CC(=O)Nc1ccc(C)cc1NC(C)=O,i
Cc1nn(CC(O)COc2ccc3cc(Br)ccc3c2)c(C)c1Cl (stereo not given),35%
O=C(NCc1ccc(Cl)cc1)c1ccccc1-c1ccccc1,13µg/mL*
CCOc1ccccc1N(CC(=O)Nc1ccccc1C(=O)NCCc1ccccc1)S(C)(=O)=O,i
CCOCC(=O)Nc1ccc(OC)cc1[N+](=O)[O-],15%
O=S(=O)(c1ccccc1)N1CCN(S(=O)(=O)c2ccc(F)cc2)CC1,i
CCc1cccc(C)c1NC(=O)CCc1ccc(S(=O)(=O)NCCc2ccccc2)cc1,i
CN1C(=O)N(C)c2ccc(C=O)c3cccc1c23,i
COc1cc(C(C)=O)ccc1OCC(O)Cn1nc(C)cc1C (stereo not given),i

# Structures above containing a tert-butyl group, in the order listed:
SMILES,Mtb growth
CCCn1nnc(NC(=O)c2ccc(C(C)(C)C)cc2)n1,i
CC(=O)Nc1ccc(S(=O)(=O)NC(C)(C)CC(C)(C)C)cc1,i
CCOC(=O)c1c(C(C)(C)C)oc2ccc(OS(C)(=O)=O)cc12,1%

# New compounds follow
SMILES,Mtb growth
COc1ccccc1NC(=O)C1Cc2ccccc2C(=O)O1 (stereo not given),i
COc1ccc(NC(=S)NC(=O)C(C)C)cc1,i
CCOC(=O)c1[nH]c(C)c(/C(O)=C2\C(=O)C(=O)N(CCN3CCOCC3)C2c2cccnc2)c1C (stereo not given),i
Cc1ccc2c(c1)CCCN2C(=O)c1ccc2c(c1)OCO2,4%
Cn1nnnc1SCC(=O)N1CCN(c2cccc(Cl)c2)CC1,i
COc1ccc(OC(C)C(=O)O/N=C(\N)c2ccc([N+](=O)[O-])cc2)cc1 (stereo not given),5%
N=C(c1cccc(N)c1)N1CCCCC1,1%
COc1ccc(Br)cc1C(=O)Nc1cccc(-c2nnc(-c3ccco3)o2)c1,i
CCOC(=O)Nc1ccc(OCc2nnc3c4ccccc4c(C)nn23)cc1,1%
Cc1sc2ncnc(NCCN(C)C)c2c1C,i
c1ccc(CCc2nc(-c3ccncc3)no2)cc1,i
C=CCn1c(SCC(=O)Nc2ccc(Br)cc2)nnc1C(CC(C)C)NC(=O)c1ccccc1Cl (stereo not given),2%

# Assay outcomes from PubChem.
